Screens: PubChem, National Center for Advancing Translational Sciences (NCATS)
VDR inh: blocks the human vitamin D receptor | 400,000 tested, 0.93% active | Potency, µM, inactives show max response, negative = inhibition, usual class: inhibitors | AID 504847 | VDR-SRC2-3 peptide fluorescence polarization, 2 h; active = well fitted inhibition curve with a large enough effect; inconclusive = small, poorly fitted or top-dose-only effect, or another doubt; inactive = no such curve, though single readings can be large or run the other way; note: series mostly up to about 120 µM
Target sequence (P11473 whole entry, looked up): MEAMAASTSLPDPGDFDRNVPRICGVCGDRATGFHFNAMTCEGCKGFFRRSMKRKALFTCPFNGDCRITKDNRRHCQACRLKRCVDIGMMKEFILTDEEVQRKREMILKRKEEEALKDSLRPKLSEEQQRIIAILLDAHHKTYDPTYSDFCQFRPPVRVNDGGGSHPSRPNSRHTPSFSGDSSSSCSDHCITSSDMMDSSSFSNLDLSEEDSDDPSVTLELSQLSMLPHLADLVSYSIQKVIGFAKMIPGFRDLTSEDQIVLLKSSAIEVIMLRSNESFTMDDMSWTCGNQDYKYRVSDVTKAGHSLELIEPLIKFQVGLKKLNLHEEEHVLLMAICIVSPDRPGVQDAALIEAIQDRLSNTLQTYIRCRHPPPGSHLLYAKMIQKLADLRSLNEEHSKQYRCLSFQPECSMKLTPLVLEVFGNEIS
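Signal is fluorescence polarization, reporting how far test compounds block the interaction of VDR with the SRC2-3 coregulator peptide after a 2 h room-temperature incubation.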
* = called active by the depositor; ? = inconclusive; & = joins results of further samples. % is set by controls: 0 for no effect and ±100 for the full control effect; potency is the fitted concentration of half-maximal effect. An excerpt; the hit share may differ from the screen's.

SMILES	VDR inh
COc1ccc(CCNC(=O)CCCCn2c(=O)c3ccccc3n(Cc3ccc(Cl)cc3)c2=O)cc1OC	14%
O=C(NCc1ccccc1)c1cc2ccc(O)cc2oc1=O	?
CCOc1ccc(NC(=O)C2=C(C)NC(=S)NC2c2ccc(O)c(OC)c2)cc1 (configuration not stated)	-11%
CCN1C[C@@H]2[C@@H]3C(=O)N(C)C(=O)[C@@H]3[C@](C)(C1=O)N2C(=O)c1ccc(Cl)c(Cl)c1	-15%
O=c1[nH]c(-c2ccccn2)cc2ccccc12	-7%
CCC(=O)N(C)CCc1cc2c(c(OC)c1/C=N/Nc1ccc(C(=O)O)cc1)OCO2	-4%
CCN(Cc1cccs1)C(=O)c1cccc(S(=O)(=O)N2CCN(C)CC2)c1	-3%
CCC(C)NC(=O)Cn1cnc([N+](=O)[O-])c1 (configuration not stated)	6%
COc1cc(OC)nc(NC(=O)CSc2nc3ccccc3o2)n1	0%
O=C(CCn1nnc2ccccc2c1=O)NCC1CCC(C(=O)O)CC1 (configuration not stated)	-4%
CCOc1ccc(OCCNC(=O)c2cc(C3CC3)nc3c2cnn3C(C)C)cc1	-14%
CC(=O)N1c2c(cc(Br)cc2S(=O)(=O)Nc2c(C)n(C)n(-c3ccccc3)c2=O)CC1C (configuration not stated)	-15%
CCOc1ccc(S(=O)(=O)Nc2nc3ccc(OC)cc3s2)cc1	-10%
Cc1cc(OCC(=O)N(C)C2CCCCC2)ccc1Cl	9%
COC(=O)c1n[nH]c2ccccc12	-8%
Cc1[nH]c2ccccc2c1C(=O)C(=O)N1CCN(c2ccccc2Cl)CC1	9%
O=C(O)c1ccc(-c2ccccc2C(F)(F)F)s1	126µM*
Nc1nc(N)nc(COc2ccccc2)n1	-1%
CNS(=O)(=O)c1cn(CC(=O)N2CCN(c3ccccc3F)CC2)cc1S(=O)(=O)NC	-4%
CCN(CC(=O)Nc1sc2c(c1C#N)CCC(C)C2)CC(=O)NC1CCS(=O)(=O)C1 (configuration not stated)	3%

Among those listed so far, these have fluorine.
SMILES	VDR inh
O=C(O)c1ccc(-c2ccccc2C(F)(F)F)s1	126µM*
CNS(=O)(=O)c1cn(CC(=O)N2CCN(c3ccccc3F)CC2)cc1S(=O)(=O)NC	-4%

Remaining list, next part
SMILES	VDR inh
COc1cc(/C=C2\SC(=Nc3ccccc3)N(Cc3ccco3)C2=O)ccc1OC(C)C(=O)O (configuration not stated)	?
CCCNC(=S)N1CCC(C(=O)c2ccc3c(c2)OCCO3)CC1	16%
CCN(CC)c1ccc(S(=O)(=O)N2CCOCC2)cc1NC(=O)c1cc(=O)c2ccccc2o1	-1%
O=C1OC(c2ccc(Cl)cc2)/C(=C(/O)c2ccccc2)C1=O (configuration not stated)	?
CCN(CC)S(=O)(=O)c1ccc(N2CCOCC2)c(NC(=O)c2cc(=O)[nH]c3ccccc23)c1	6%
O=C(/C=C/c1ccccc1)NC(N1CCOCC1)C(Cl)(Cl)Cl (configuration not stated)	-12%
C(=N\Nc1nn2cnnc2c2ccccc12)/c1ccco1	?
Nc1nc(NCCOCCO)nc(NC2CCCCC2)c1[N+](=O)[O-]	22%
COc1ccc(S(=O)(=O)NC2CC(=O)N(c3ccccc3)C2)cc1C (configuration not stated)	0%
O=C(CSc1nnc2n(C3CCCC3)c(=O)c3ccccc3n12)N1CCCCCC1	-9%
Cc1nc(C/C(=N\Nc2ccccc2)c2ccc(O)cc2O)cs1	-29%
COc1ccc(/C(O)=C2/C(=O)C(=O)N(c3ncccn3)C2c2ccc(OC)c(OC)c2)cc1 (configuration not stated)	-8%
Cc1ccc(-c2nnc(Nc3ccc(O)cc3)c3ccccc23)cc1S(=O)(=O)N1CCN(C)CC1	12%
Cc1ccc(C(=O)COC(=O)CCNS(=O)(=O)c2ccccc2F)cc1	-8%
Cc1ccc(CS(=O)(=O)c2cn(CC(=O)N3CCOCC3)c3ccccc23)cc1	3%
COc1ccc(S(=O)(=O)N(C)C[C@H]2Oc3ccc(NC(=O)Nc4ccc(C(F)(F)F)cc4)cc3C(=O)N([C@H](C)CO)C[C@@H]2C)cc1	-15%
C/C(=N\NC(=O)c1ccc(NS(=O)(=O)c2cccs2)cc1)c1cccs1	0%
Cc1cc(Nc2ccccc2Cl)n2nnnc2n1	-20%
O=C1CC(N2CCSCC2)C(=O)N1c1cccc(Cl)c1 (configuration not stated)	-1%
COc1ccc(CNC(=S)Nc2ccc3nc(N4CCOCC4)cc(C)c3c2)cc1	-12%
COc1ccc(NC(=O)c2nc(S(=O)(=O)Cc3cccc(C)c3)ncc2Cl)c(OC)c1	-23%
COc1cc(NC(=O)C2CCCCC2)c(OC)cc1NC(=O)CCC(=O)NCc1ccco1	2%
O=C(OCC(=O)N1CCc2ccccc2C1)c1ccc(OC(F)F)cc1	0%
CCOc1ccc(NS(=O)(=O)c2ccc(C(=O)NCc3ccncc3)cc2)cc1	-3%
O=C(NCC(=O)N1CCN(c2ccccc2O)CC1)c1ccccc1	5%
CC(C)(C)NC(=S)NNC(=O)c1ccncc1	-15%
O=C(c1ccc(Cl)cc1)N1CCC(O)(CSc2ccc(Cl)cc2)CC1	0%
Cc1ccc(NC(=O)CCSc2nnnn2-c2ccc3c(c2)OCO3)cc1C	-4%
CCOC(=O)c1ccccc1N=Cc1c(O)c2ccccc2oc1=O	-7%
CCC(OC(=O)c1nsc(Cl)c1Cl)C(=O)NCc1cccs1 (configuration not stated)	-6%
Cc1nc(SC(C)C(=O)c2c(N)n(C)c(=O)n(C)c2=O)c2c(C)c(C)sc2n1 (configuration not stated)	-6%
Cc1ccccc1NC(=O)CN1C(=O)NC2(CCc3ccccc32)C1=O (configuration not stated)	-10%
CC(Oc1ccc(Cl)cc1Cl)C(=O)NNC(=O)C(=O)N1CCCC1 (configuration not stated)	8%
OCCCCNCc1ccc(OCc2ccccc2)cc1	4%
COc1ccc(Cl)cc1NC(=O)C1CCN(c2nnc(C)c3c(C)n(-c4ccccc4)nc23)CC1	11%
c1ccc(-c2cc(-c3ccccc3)n3ncnc3n2)cc1	-1%
CC(C)=Cc1c(O)nc2ccccn2c1=O	-9%
Cc1ccc(OCC(=O)OCC(=O)N2c3ccccc3CC2C)cc1C (configuration not stated)	0%
CC(C)OC(=O)CN1CCN(c2ccc(Cl)cc2)CC1	-4%
CCOC(=O)N1CCN(C(=O)CSCc2ccc(Cl)cc2)CC1	2%
O=C1CN=C(Nc2ccc(Cl)cc2)N1c1ccccc1	-8%
Cc1ccccc1Cn1c(SCc2ccc(C(=O)NC3CCCC3)cc2)nc2ccncc21	5%
CC(C)(O)[C@H](O)COc1c2ccoc2cc2oc(=O)ccc12	-6%
O=C(c1ccc(S(=O)(=O)N2CCCCC2)cc1)c1nnc(-c2ccc(Cl)cc2)o1	-8%
Cc1c(-n2c(=O)n(Cc3ccccc3)c(=O)c3[nH]cnc32)cccc1S(C)=O (configuration not stated)	-1%
Cc1ccccc1NS(=O)(=O)c1ccc(C(=O)N2CCCC(C(F)(F)F)C2)cc1 (configuration not stated)	2%
Cc1c(C)n(C)c2ccc(C(=O)N3CCN(c4ccccc4)CC3)cc12	7%&17%
CCn1ncc(CNC(=O)C2(C)CC2(Cl)Cl)c1C (configuration not stated)	-2%
CCOc1ccc(C(=O)NCc2ccc3c(c2)CCN3C(=O)c2ccc(Cl)cc2)cc1	12%
Nc1nonc1C(=O)NCCNC(=O)c1cccc(Cl)c1	13%
COC(=O)c1ccc(NC(=O)Cn2nnc(-c3cccs3)n2)cc1	7%
Cc1cc2nc3c(=O)[nH]c(=S)[nH]c3nc2cc1NC(=O)C(F)(F)F	5%
CCc1ccc(NC(=O)CSc2ccc3nc(-c4ccc(OC)cc4)cn3n2)cc1	8%
O=C(O)c1cccc(NC(=O)c2ccc(N3C(=O)c4ccc(C(=O)Nc5cccc(C(=O)O)c5)cc4C3=O)cc2)c1	3%
Cc1c(C(=O)Nc2ccc3c4c(cccc24)CC3)cccc1[N+](=O)[O-]	3%
CC(=O)c1ccc(N2CCN(C(=O)C3CCN(S(=O)(=O)c4ccc5c(c4)CC(C)N5C(=O)C4CC4)CC3)CC2)cc1 (configuration not stated)	-24%
O=C(O)CCNS(=O)(=O)c1ccc(Oc2ccccc2Cl)cc1	-13%
Cc1cc(=O)n(CCO)c(O)c1C#N	-17%
CCc1ccc(-n2c(=O)c3c4c(sc3n(CC(=O)c3ccc(Cl)cc3)c2=O)CCC4)cc1	-1%
COc1cc2cc(CN(CCO)C(=O)c3cccs3)c(=O)[nH]c2cc1OC	-15%
(more compounds)
SMILES	VDR inh
CCc1ccc2occ(CC(=O)Nc3c(C(=O)Nc4ccc(C)cc4)oc4ccccc34)c2c1	15%
COC(=O)C1OC2(OC1C(=O)OC)c1ccccc1-c1ccccc12 (configuration not stated)	17%
COc1ccc(CC(=O)Nc2nn(C)c3nc4c(C)cccc4cc23)cc1	-18%
CC1CN(C(=S)Nc2ccccc2)C(C)CN1C=O (configuration not stated)	6%
Cc1ccc(C2CC(c3cccs3)=NN2C(=O)CSC2=NCCS2)cc1 (configuration not stated)	-3%
c1ccc(Cc2nc3ccccc3[nH]2)cc1	-12%
COc1ccc(C(CNC(=O)c2cccc(S(=O)(=O)Nc3ccccc3OC)c2)N2CCCC2)cc1 (configuration not stated)	-17%
Cc1c(C(=O)N2CCN(c3ccccc3F)CC2)sc2nc(-c3ccccc3)cn12	4%
Cc1cc(=O)oc(C)c1C(=O)Nc1ccc(Cl)cn1	-9%
CCOc1ccccc1N1C(=O)c2cccnc2C1=O	-6%
O=C(NNc1ccccc1)c1ccccc1	?
CCOc1ccc(C(=O)NCC(C)NC(=O)c2ccc(OCC)cc2)cc1 (configuration not stated)	-3%
O=C(NCCN1CCN(S(=O)(=O)c2ccc(F)cc2)CC1)C(=O)NCc1ccccc1	-3%
Cc1ccc(S(=O)(=O)N(C)c2ccc(OC(C)C(=O)N(C)c3ccccc3)cc2)cc1 (configuration not stated)	2%
O=C(c1ccccc1SCc1ccccc1)N1CCOCC1	-15%
CCOc1cccc(C(=O)Nc2ccccc2C(=O)N2CCOCC2)c1	-10%
Cc1cc(C)n2c(SCC(=O)Nc3ncc(C(F)(F)F)cc3Cl)nnc2n1	1%
O=C(COC(=O)CCC(=O)c1cccs1)NCc1ccc(Cl)cc1	-11%
CCOC(=O)c1c(C)[nH]c(C)c1C(=O)CSc1nnc(N)s1	22%
COc1ccc(C)cc1NC(=O)c1cc(S(=O)(=O)N2CCCCC2)ccc1N1CCOCC1	6%

Reprinted at random: 4 records from the list.
SMILES	VDR inh
O=C(NNc1ccccc1)c1ccccc1	?
Cc1ccc(C2CC(c3cccs3)=NN2C(=O)CSC2=NCCS2)cc1 (configuration not stated)	-3%
O=C(c1ccccc1SCc1ccccc1)N1CCOCC1	-15%
COC(=O)C1OC2(OC1C(=O)OC)c1ccccc1-c1ccccc12 (configuration not stated)	17%

(more compounds)
SMILES	VDR inh
COc1ccc(C(=O)c2sc3nc(-c4ccccc4)ccc3c2N)cc1OC	7%
C=C(C)Cn1c(CNC(C)=O)nc2ccccc21	5%
CC(C)N(C(=O)CSc1nnnn1C1CCCC1)C(C)C	-23%
O=C(Nc1cccc(O)c1)c1c(O)c2ccccc2[nH]c1=O	6%
COc1ccccc1NC(=O)COC(=O)Cc1ccc(S(=O)(=O)N2CCCCC2)s1	23%
CC(=O)c1ccc(N2CCN(C(=O)c3cccs3)C(C)C2)c(F)c1 (configuration not stated)	-4%
CC1(CCC#N)N=C(SCCC#N)N(c2ccccc2)C1=O (configuration not stated)	-7%
COc1ccc(C(CNC(=O)COc2ccccc2OC)N2CCCCC2)cc1 (configuration not stated)	4%
Cc1cc(=O)oc2cc(OCCSCCN3CCCCC3)ccc12	-6%
CCCCc1nc2sc3c(=O)[nH]cnc3c2c2c1CCCC2	-6%
COc1cc(C2NC(=O)NC(C)=C2C(=O)OCC2CCCCC2)cc(Cl)c1O (configuration not stated)	1%
c1ccc2c(c1)ccc1ccccc12	5%
CC1(C)CC(=O)c2cc(OCC(=O)N3CCN(c4ccccc4F)CC3)ccc2O1	-3%
COc1ccc(NC(=O)C2CCC2)cc1S(=O)(=O)N1CCOCC1	-3%
S=C(Nc1ccccc1Cl)N1CCN(Cc2ccccc2)CC1	5%
O=C(C1COc2ccccc2O1)N1CCN(c2nc3ccccc3s2)CC1 (configuration not stated)	-7%
O=C(Nc1ccc(C(=O)O)cc1)/C(=C\C=C\c1ccccc1)NC(=O)c1ccccc1Br	7%
CC(Sc1nncn1C)C(=O)Nc1ccc(S(N)(=O)=O)cc1 (configuration not stated)	-12%
COc1ccccc1N1CCN(C(=O)C2=CC=CN3CCS(=O)(=O)N=C23)CC1	-26%
COc1ccc(-[n+]2c(C)cc(/C=C3\Sc4ccccc4N3C)cc2C)cc1	-10%
COc1ccc(NC(=O)CN(C)C(=O)c2cccc(S(=O)(=O)Nc3ccc(OC)cc3)c2)cc1	-9%
CCOc1ccccc1OCCOc1ccccc1CC	6%
COc1ccc(NC(=O)N(C)C[C@H]2Oc3ccc(NC(=O)Nc4c(C)noc4C)cc3C(=O)N([C@H](C)CO)C[C@H]2C)cc1	-5%
COc1ccc(Oc2ncc3nc(-c4ccccc4)c(=O)n(C4CC4)c3n2)cc1	-20%
Cc1ccc(NC(=O)N[C@@H](CC(C)C)C(=O)O)c(C)c1	8%
O=C(Cn1ccc([N+](=O)[O-])n1)c1ccccc1	5%
Cc1ccc(CN2CCCn3nc(C(=O)NCc4ccccc4Cl)cc3C2=O)cc1	-1%
CC1CCN(c2ncnc3c2cnn3Cc2ccc(Cl)cc2)CC1	-3%
Nc1nc(NCc2ccccc2)c2[nH]cnc2n1	7%&-2%
CNc1nc(C)cc(C)c1S(=O)(=O)c1ccc(C)cc1	-14%

3 compounds from above, ordered by the number in VDR inh, lowest first:
SMILES	VDR inh
COc1ccc(Oc2ncc3nc(-c4ccccc4)c(=O)n(C4CC4)c3n2)cc1	-20%
COc1ccc(NC(=O)N(C)C[C@H]2Oc3ccc(NC(=O)Nc4c(C)noc4C)cc3C(=O)N([C@H](C)CO)C[C@H]2C)cc1	-5%
Cc1ccc(CN2CCCn3nc(C(=O)NCc4ccccc4Cl)cc3C2=O)cc1	-1%
